From PubChem
PMP22 txn – PMP22 gene transcription modulation; 43,000 compounds, 2% hits; S16 Pmp22-F2sN Schwann cells (luciferase reporters placed in the Pmp22 gene), FLuc/NLuc coincidence luminescence, 24 h; Potency, µM (doses to about 57.5 µM), for inactives: at the top dose activity change, negative = inhibition, most hits filed as inhibitors; active = clear falling dose curves in both reporters; inconclusive = both reporters move, but less clearly or upward; inactive = either reporter flat; the % is the NLuc reporter signal; also: % is scaled to controls: 0 for no effect and ±100 for the full control effect; some results filed as inactive show a strong effect at the top dose
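Luminescent read-out of sequential FLuc and NLuc signals from a reporter embedded in the Pmp22 3' UTR of S16 Schwann cells, taken after 24 h compound exposure at 37C; compounds reducing both signals score as inhibitors of expression.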
HTT promoter inh – HTT promoter inhibition; AID 1508623; Potency, µM (top dose mostly 57.5 µM), for inactives: at the top dose activity change, negative = inhibition, actives largely listed as inhibitors; 48,000 compounds, 0.93% hits; HEK293 HTT promoter firefly luciferase reporter (activity 0% = vehicle and -100% = no light), 24 h; active = well fitted inhibition curve with a large enough effect; inconclusive = small, poorly fitted or top-dose-only effect; inactive = no such curve, though single readings can be large or run the other way; also: nearly all actives have a fitted effect of over 50% in size
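HEK293 luciferase promoter-reporter cells (2,500/well) plated 24 h, then compounds added at up to 57.5 uM final for 24 h at 37 °C. Firefly luminescence by Dual-Glo, normalized to vehicle (0%) and zero RLU (-100%).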
* hit, by the source's call; ? = inconclusive; / = no result given; [ ] = dose if it differs, or a comment. Potency is read from the fitted curve at half-maximal effect.

SMILES | PMP22 txn | HTT promoter inh
CCn1c(=O)n(CC)c2cc(N3CCCC3)c(NC(=O)Nc3cc(C)cc(C)c3)cc21 | ? | -16%
O=C(NCCS(=O)(=O)N1CCN(c2ccc(F)cc2)CC1)C1CC(=O)N(c2ccccc2)C1 (configuration not stated) | 16% | -6%
COc1cccc(CNC(=O)CN(c2ccc(C)cc2)S(=O)(=O)N(C)C)c1OC | -12% | -5%
COc1ccc(NC(=O)CN(C)S(=O)(=O)c2ccc3c(c2)CCCN3C(C)=O)cc1 | -4% | -27%
O=C(Nc1ccc(Br)cc1)c1ccc(Br)c(S(=O)(=O)N2CCCCC2)c1 | ? | 13µM*
CCOc1ccccc1CNC(=O)Nc1cn(CC(C)C)c(=O)c2ccccc12 | ? | -17%
Cc1ccc(Cl)cc1N1CCN(C(=O)c2ccc(CS(=O)(=O)c3ccc(Br)cc3)o2)CC1 | ? | ?
CCc1ccc(-c2nc3c(c(SCc4ccccc4F)n2)Cc2c(CO)cnc(C)c2O3)cc1 | 3% | -6%
COC(=O)c1cccc(CN2C(=O)SC(Nc3ccccc3C)C2=O)c1 (configuration not stated) | -15% | -14%
Cc1ccc(CCNC(=O)c2ccc3nc(N4CCC(C)CC4)sc3c2)cc1 | 0% | 0.35µM*
O=C(C1CCN(S(=O)(=O)c2cccc3nonc23)CC1)N1CCN(c2cccc(Cl)c2)CC1 | ? | ?
CCOc1ccc(C(=O)c2oc3ccccc3c2NC(=O)c2cc(-c3ccccc3)on2)cc1 | -3% | 0%
O=C(NCc1ccc(Cl)cc1)C1(c2cccs2)CCOCC1 | ? | -15%
O=C(NCc1ccccc1)C(=O)NCC(c1ccco1)S(=O)(=O)c1ccc(Cl)cc1 (configuration not stated) | ? | ?
Cc1ccc(C)c(CN2C(=O)N(c3cc(Cl)ccc3C)S(=O)(=O)c3ccccc32)c1 | -31% | -16%
COc1cccc(N2CC(NC(=O)c3cccs3)CC2=O)c1 (configuration not stated) | ? | -22%
CC(C)Cn1c(SCc2cccc(F)c2)nc2ccsc2c1=O | -23% | ?
Cc1ccc(/C=C(\C#N)C(=O)Nc2cccc(Br)c2)o1 | -5% | 49%[activator]
CCOc1ccc(CCNC(=O)CSCc2nc(-c3cccc(C)c3)oc2C)cc1OCC | ? | ?
CC(C)c1ccc(NC(=O)c2ccc(Cn3nc(N4CCN(c5ccccc5)CC4)ccc3=O)o2)cc1 | -32% | ?

Taken from the results shown (twelve entries):
SMILES | PMP22 txn | HTT promoter inh
CCn1c(=O)n(CC)c2cc(N3CCCC3)c(NC(=O)Nc3cc(C)cc(C)c3)cc21 | ? | -16%
O=C(NCCS(=O)(=O)N1CCN(c2ccc(F)cc2)CC1)C1CC(=O)N(c2ccccc2)C1 (configuration not stated) | 16% | -6%
COc1cccc(CNC(=O)CN(c2ccc(C)cc2)S(=O)(=O)N(C)C)c1OC | -12% | -5%
COc1ccc(NC(=O)CN(C)S(=O)(=O)c2ccc3c(c2)CCCN3C(C)=O)cc1 | -4% | -27%
O=C(Nc1ccc(Br)cc1)c1ccc(Br)c(S(=O)(=O)N2CCCCC2)c1 | ? | 13µM*
CCOc1ccccc1CNC(=O)Nc1cn(CC(C)C)c(=O)c2ccccc12 | ? | -17%
Cc1ccc(Cl)cc1N1CCN(C(=O)c2ccc(CS(=O)(=O)c3ccc(Br)cc3)o2)CC1 | ? | ?
CCc1ccc(-c2nc3c(c(SCc4ccccc4F)n2)Cc2c(CO)cnc(C)c2O3)cc1 | 3% | -6%
COC(=O)c1cccc(CN2C(=O)SC(Nc3ccccc3C)C2=O)c1 (configuration not stated) | -15% | -14%
Cc1ccc(CCNC(=O)c2ccc3nc(N4CCC(C)CC4)sc3c2)cc1 | 0% | 0.35µM*
O=C(C1CCN(S(=O)(=O)c2cccc3nonc23)CC1)N1CCN(c2cccc(Cl)c2)CC1 | ? | ?
CCOc1ccc(C(=O)c2oc3ccccc3c2NC(=O)c2cc(-c3ccccc3)on2)cc1 | -3% | 0%

Continued.
SMILES | PMP22 txn | HTT promoter inh
COc1ccc(N2CCN(C(=O)c3ccc(CS(=O)(=O)c4ccc(Br)cc4)o3)CC2)cc1 | -18% | -15%
CC1CCN(S(=O)(=O)c2ccc3c(c2)N(CC(=O)NC(C)C)C(=O)CO3)CC1 | 3% | -13%
CC1=Nc2cc(C(=O)NC3CCCC3)ccc2Sc2ccc(Cl)cc21 | 5.3µM* | ?
Cc1ccc(CNC(=O)C2CCN(Cc3nc(-c4cccc(Br)c4)oc3C)CC2)cc1 | 5% | -2%
Cc1ccc(NC(=O)CN2C(=O)CSc3ccc(S(=O)(=O)N4CCCC4)cc32)cc1F | -1% | -10%
CSc1ccc(CCNC(=O)c2ccc3c(c2)c(C)c(C)n3Cc2ccc(F)cc2)cc1 | -16% | -29%
COc1ccccc1CNC(=O)CCCCn1c(=O)c2ccccc2n(Cc2ccccc2C)c1=O | 14µM* | -30%
Brc1ccc(CN2CCc3nc(Nc4ccccc4)ncc3C2)s1 | -45% | -23%
COc1ccc(C(=O)Oc2c(Sc3ccccc3)c(C)nn2-c2ccccc2)c(OC)c1 | ? | ?
COc1cccc(OC)c1C(=O)N[C@@H]1C(=O)N2[C@@H]1SC(C)(C)[C@@H]2C(=O)O | / | 10%
CC(C)(C)c1ccc(S(=O)(=O)N2CCN(Cc3noc(CCC(=O)N4CCCCC4)n3)CC2)cc1 | ? | ?
CN1CCN(C(=O)C(=O)Nc2c3c(nn2-c2cccc(Cl)c2)CSC3)CC1 | -7% | -13%
CCN(CC)c1ccc(-c2nc(-c3ccccn3)no2)cc1[N+](=O)[O-] | ? | ?
CCOc1ccc(NC(=O)CSc2nc(C)c(C(=O)Nc3ccccc3)c(-c3ccc(Cl)cc3)c2C#N)cc1 | -11% | ?
CCOc1ccc(N(CC)S(=O)(=O)N2CCCC(C(=O)NCCc3ccccc3OC)C2)cc1 (configuration not stated) | ? | ?
Cc1ccc(NC(=O)/C(C#N)=C/c2cc(C)n(-c3ccc(F)cc3)c2C)cc1C | 5% | -9%
COc1ccccc1-c1cc2nc(C)c(CCC(=O)NCc3cccc(Cl)c3)c(C)n2n1 | ? | 13µM*
Cc1ccc(Sc2c(C)nn(C(C)(C)C)c2OC(=O)CC(C)C)cc1 | -14% | -19%
Cc1nn2c(=O)cc(COC(=O)c3ccc(NC(=O)COc4ccccc4F)cc3)nc2s1 | ? | -15%
O=C(Cn1cnc(S(=O)(=O)N2CCCC2)c1)Nc1ccccc1 | 23% | -18%
CCOc1ccc(-c2nonc2NC(=O)c2ccco2)cc1 | -20% | -20%
Cc1nc(-c2ccc(S(=O)(=O)Nc3ccc(C#N)cc3)cc2)co1 | 13% | -31%
COc1ccccc1NC(=O)C1=C(C)Nc2nc(SCC(=O)c3ccc(C)cc3)nn2C1c1ccc(F)cc1 (configuration not stated) | -12% | -3%
Cc1ccc(NCc2cccn2-c2nnc(N3CCC(C(=O)NCc4ccc(OC(C)C)cc4)CC3)s2)cc1 | ? | 28µM*
COc1ccc(N2CC(NC(=O)C3CCCCC3)CC2=O)cc1OC (configuration not stated) | 24% | -9%
COc1cccc(/C=C(\C#N)c2nc3ccccc3c(=O)[nH]2)c1OC | -9% | -11%
COCCNC(=O)CSc1c2c(nc3cc(Cl)ccc13)CCCC2 | ? | -1%
COc1cc(NC(=O)C2=CC(c3ccc(F)cc3)=NS(=O)(=O)N2C)cc(OC)c1OC | -24% | ?
COc1cc2[nH]c(=O)n(CCCC(=O)N3CCN(c4cccc(C(F)(F)F)c4)CC3)c(=O)c2cc1OC | ? | 2%
CSc1cccc(NC(=O)C2CCN(C(=O)c3cnn(-c4ccccc4)c3-n3cccc3)CC2)c1 | -18% | ?
Cn1c(SCc2cccc(F)c2)nc2c([nH]c3ccccc32)c1=O | 3% | -9%
COc1ccc(Cn2c(C(=O)O)c(CNCc3cccs3)c3ccc(C)cc32)cc1 | -27% | -21%
CCCN(CCC)CCNC(=O)c1cc(-c2ccc(Br)s2)nc2ccccc12 | ? | -27%
COc1cccc(N2CCN(C(=O)CCc3c(C)nc4c(c3C)c(=O)n(C)c(=O)n4C)CC2)c1 | ? | -6%
CC(=O)c1cccc(NS(=O)(=O)c2ccc3[nH]c4c(c3c2)CCCCC4)c1 | ? | ?
COc1ccc(-n2nc(C(=O)N(C)c3cc(C)ccc3C)c3c4ccccc4n(C)c3c2=O)cc1Cl | -9% | 31%[activator]
CC(C)OCCCNC(=O)CCCn1c(SCC(=O)c2ccc(F)cc2)nc2c(sc3ccccc32)c1=O | -8% | -9%
CC(C)c1ccc(NC(=O)C(Cc2ccccc2)n2cccc2)cc1 (configuration not stated) | ? | -20%
Cc1ccc(C(=O)Nc2c(C(=O)NCc3ccc(Cl)cc3)sc3nc(C)cc(C)c23)cc1 | ? | -12%
CN(CC(=O)NCc1ccc(F)cc1)S(=O)(=O)c1ccc2[nH]c3c(c2c1)CCCC3 | ? | ?
CCCn1c(CCC(=O)Nc2cc(Cl)c(OC)cc2OC)nc2cccnc21 | 11% | -16%
CCOC(=O)C1CCCN(C(=O)c2ccc3c(c2)N(Cc2ccccc2)C(=O)c2ccccc2S3=O)C1 (configuration not stated) | -10% | -13%
COc1ccccc1NC(=O)CCn1nc(-c2ccccc2)c2ccccc2c1=O | ? | ?
CCc1ccc(NC(=O)C2CCC(CNS(=O)(=O)c3ccc4c(c3)CC(C)N4C(C)=O)CC2)cc1 (configuration not stated) | -24% | ?
Cc1cc(Cl)ccc1NC(=O)C1CCCN1S(=O)(=O)c1ccc2c(c1)CCCC(=O)N2 (configuration not stated) | -2% | ?
CCOC(=O)c1cccc(Nc2c3c(nc4ccccc24)CCC3)c1 | ? | ?
CCOC(=O)CC(NC(=O)CCc1c(C)nc2c(-c3ccccc3)c(C)nn2c1C)c1ccc(C)cc1 (configuration not stated) | ? | ?
COc1ccc(-c2n[nH]c3c2C(c2ccc(O)cc2)N(c2ccc(Br)cc2)C3=O)cc1 (configuration not stated) | ? | ?
C[C@@H](O)[C@H](N)C(=O)O | / | -6%[25.2 µM]
Oc1c(Br)cc(Br)cc1-c1nc2ccccc2s1 | -24% | -6%
COc1ccc(CNc2nc(-c3ccco3)nn2C(=O)c2ccccc2C)cc1 | 4% | 16%
O=C(CN1C(=O)CCc2cc(S(=O)(=O)N3CCOCC3)ccc21)NCc1ccccc1 | ? | -24%
COc1ccc(NC(=O)c2sc3nc4c(cc3c2N)CCCCCC4)cc1 | ? | ?
COc1ccc(CCNS(=O)(=O)c2cc(-c3cc(C)no3)ccc2OC)cc1OC | -5% | -17%
COc1ccc(S(=O)(=O)N(CC(=O)NC(C)c2ccccc2)c2ccc(C)cc2)cc1OC (configuration not stated) | ? | ?
COc1cc(C2C(C(=O)Nc3ccc(Cl)cc3)=C(C)Nc3nc(SC)nn32)cc(OC)c1OC (configuration not stated) | ? | -8%
Clc1ccc(CSc2ccc(-c3cccs3)nn2)cc1 | 1% | 23%
COc1cc(OC)cc(C(=O)Nc2ccc3oc(-c4cccc5c(Br)cccc45)nc3c2)c1 | 12% | -5%
COC(=O)c1sccc1S(=O)(=O)N(CC(=O)Nc1ccccc1F)c1ccccc1 | 0% | 9%
Fc1ccc(-c2cc(-c3nc(-c4cccc(Cl)c4)no3)[nH]n2)cc1 | 10% | 5%

Two successive entries from above, for reference:
SMILES | PMP22 txn | HTT promoter inh
CCCn1c(CCC(=O)Nc2cc(Cl)c(OC)cc2OC)nc2cccnc21 | 11% | -16%
CCOC(=O)C1CCCN(C(=O)c2ccc3c(c2)N(Cc2ccccc2)C(=O)c2ccccc2S3=O)C1 (configuration not stated) | -10% | -13%

Next section.
SMILES | PMP22 txn | HTT promoter inh
Cc1ccc(-n2nc(C)c3c(C(=O)Nc4ccccc4C(F)(F)F)cc(C)nc32)cc1 | -6% | -27%
CCC=CC[C@H]1C(=O)CC[C@@H]1CC(=O)OC | / | 9%
Cc1oc2ncn(CC(C)C)c(=O)c2c1C(=O)NCCCN(Cc1ccccc1)C(C)C | ? | -18%
Cc1ccc(C(=O)NCC(c2ccc3c(c2)OCO3)N2CCOCC2)cc1C (configuration not stated) | -15% | -21%
COc1ccc(-c2nc(SCC(=O)NCC3CCCO3)c(-c3ccc(Cl)cc3)[nH]2)cc1 (configuration not stated) | -17% | -17%
CCN(CC)CCOC(=O)c1ccc(NC(=O)Cn2ncc3c2-c2cc(C)ccc2OC3)cc1 | ? | -24%
Cc1ccc(NC(=O)Cn2c(=O)c(C(F)(F)F)nc3ccccc32)c(C)c1 | 35% | 4%
CCN1CCc2c(sc(NC(=O)c3ccc(S(=O)(=O)N4CCCC(C)C4)cc3)c2C(=O)OC)C1 (configuration not stated) | ? | ?
COc1cc(NC(=O)c2cc(Cl)c(OC)c(Cl)c2)ccc1NC(=O)c1cc2ccccc2o1 | -10% | -7%
Cc1c(C(=O)NCCN(C)C)oc2c1-c1nn(Cc3ccccc3Cl)cc1CC2 | ? | 6%
O=C(CSc1nnc2scc(-c3ccc(Cl)cc3)n12)Nc1ccc(F)cc1 | -14% | -11%
O=C(Nc1c(C(=O)Nc2cccc(F)c2)oc2ccccc12)c1cc2ccccc2o1 | -24% | -6%
Cc1ccc(CNC(=O)c2nnn(CC(=O)Nc3cc(C)ccc3C)c2N)cc1 | 7% | -3%

This is a subset (hit frequency here may not be typical).
